MARV entry inh = inhibitors of Marburg virus binding or cell entry. Potency, µM (series often up to 37.8 µM), for inactives: at the top dose activity change, negative = inhibition, hits mostly inhibitors. AID 540276. Marburg virus pseudotyped entry inhibition, cell reporter; control for the full effect not named in the record; about a third of the inactives were read at about 46 µM. 300,000 compounds, 1.8% hits; active = well fitted inhibition curve with a large enough effect; inconclusive = small, poorly fitted or top-dose-only effect, or effect the other way; inactive = flat fitted curve, though single readings scatter; tested in HEK293 cells; about a fifth of its hits are not listed in these tables; further: on the % scale 0 is the no-effect control and ±100 the full control effect; luciferase read-out
Cruzain Triton = blocks cruzain activity in presence of Triton detergent. P25779. purified cruzain, Z-FR-AMC fluorescence, 0.01% Triton. Potency, µM, for the others: max response, negative = inhibition, hits mostly inhibitors. 200,000 compounds, 0.43% hits;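 further: plate controls were neutral wells for no effect and buffer without enzyme for full effect; nearly all actives have a fitted effect of over 40% in size; top concentration of the series not given in the record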
Target sequence (P25779 123-467 limits assumed): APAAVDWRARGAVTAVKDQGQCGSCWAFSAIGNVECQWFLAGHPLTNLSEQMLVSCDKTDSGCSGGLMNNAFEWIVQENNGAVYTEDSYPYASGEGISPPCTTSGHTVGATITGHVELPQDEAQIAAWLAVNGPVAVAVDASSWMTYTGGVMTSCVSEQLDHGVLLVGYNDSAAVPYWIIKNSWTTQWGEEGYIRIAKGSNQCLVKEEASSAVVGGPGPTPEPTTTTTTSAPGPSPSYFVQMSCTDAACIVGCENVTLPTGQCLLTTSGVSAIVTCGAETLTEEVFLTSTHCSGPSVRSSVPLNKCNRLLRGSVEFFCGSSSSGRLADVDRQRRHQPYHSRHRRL
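Cruzain (1.5 nM) preincubated 15 min at RT with compound in 100 mM sodium acetate pH 5.5, 5 mM DTT, 0.01% Triton X-100. Reaction started with 2 uM Z-FR-AMC; AMC fluorescence (ex 360/em 450 nm) change over 60 s gave rate.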
SARS PLP yeast = blocks SARS-CoV papain-like protease in a yeast assay | S. cerevisiae expressing SARS-CoV PLpro, growth rescue; control for the full effect not named in the record | Potency, µM (highest dose often 32.9 µM), without a hit: at the top dose activity, positive = growth rescue | 330,000 compounds, 0.19% hits; active means well fitted rising curve with a large enough effect; inconclusive means small, poorly fitted or top-dose-only effect; inactive means no such curve, though single readings can be large or run the other way; further: 0% is about no effect; nearly all actives have a fitted effect of over 55% in size; growth read by luminescence after 48 h
2A StopGo = FMDV 2A StopGo reporter, luciferase signal; human cells with a luciferase reporter of 2A StopGo recoding; control for the full effect not named in the record; 410,000 compounds, 1.2% hits; Potency, µM (series often up to 57.9 µM), for the others: at the top dose signal change, negative = less light; active = well fitted falling curve with a large enough effect; inconclusive = small, poorly fitted or top-dose-only effect; inactive = no such curve, though single readings can be large or run the other way; tested in HEK293T cells; further: on the % scale 0 is the no-effect control and ±100 the full control effect; nearly all actives have a fitted effect of over 45% in size; luciferase light after 4 h
LASV entry inh = inhibitors of Lassa virus binding or cell entry; Lassa virus pseudotype entry inhibition, cell reporter; control for the full effect not named in the record; Potency, µM (highest dose often 37.9 µM), inactives show top-dose activity change, negative = inhibition, hits mostly inhibitors; 300,000 compounds, 1.2% hits; AID 540256; active means well fitted inhibition curve with a large enough effect; inconclusive means small, poorly fitted or top-dose-only effect, or effect the other way; inactive means flat fitted curve, though single readings scatter; tested in HEK293 cells; further: on the % scale 0 is the no-effect control and ±100 the full control effect; nearly all actives have a fitted effect of over 50% in size; luciferase read-out
RE007 growth inh = less growth of the S. pombe RE007 Vpr strain. S. pombe RE007 Vpr strain, BacTiter-Glo ATP luminescence, 24 h; control for the full effect not named in the record. Potency, µM (titrated, usually from 92.2 µM), without a hit: at the highest dose activity change, negative = less growth. 360,000 compounds, 0.21% hits; active = well fitted falling curve with a large enough effect; inconclusive = small, poorly fitted or top-dose-only effect; inactive = no such curve, though single readings can be large or run the other way;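 further: on the % scale 0 is the no-effect control and ±100 the full control effect; nearly all actives have a fitted effect of over 50% in size; the assay follows cell death caused by Vpr and the record does not say whether a fall means rescue or toxicity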
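Fission yeast strain RE007, carrying one chromosomally integrated HIV-1 vpr copy, was seeded at OD 0.01 in PMG+AL medium with 23 nL pinned compound. After 24 h at 30 °C and 99% humidity, viability was read by BacTiter-Glo luminescence.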
NS1 inh = inhibitors of influenza NS1 protein function; S. cerevisiae slowed by influenza A NS1, growth recovery by OD600; Potency, µM (top dose mostly 46.1 µM), inactives show top-dose activity, positive = more growth; 270,000 compounds, 0.4% hits; AID 2326; active means well fitted rising curve with a large enough effect; inconclusive means small, poorly fitted or top-dose-only effect; inactive means no such curve, though single readings can be large or run the other way; further: nearly all actives have a fitted effect of over 50% in size
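S. cerevisiae expressing influenza A NS1, grown in glucose, washed, then diluted 1:100 into pH 6.0 -URA galactose medium with 23 nl compound. Growth recovery read as OD600; NS1-free strain serves as control.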
Cruzain noTriton = inhibitors of Trypanosoma cruzi cruzain without detergent. 200,000 compounds, 2.3% hits. Potency, µM, for inactives: max response, negative = inhibition, usual class: inhibitors. AID 1476. purified cruzain, Z-FR-AMC fluorescence, no detergent;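 further: plate controls were enzyme without inhibitor for no effect and buffer without enzyme for full effect; nearly all actives have a fitted effect of over 40% in size; top concentration of the series not given in the record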
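Detergent-free condition (0.00005% Triton X-100) in acetate buffer pH 5.5 with DTT. 1.5 nM enzyme and compound were pre-mixed 15 min, then 2 uM Z-FR-AMC substrate added; reaction progress from fluorescence change between first and third reads (60 s).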
* marks the source's active call; other numbers are inactive results; ? = inconclusive; nt = not tested or not shown; [ ] = dose if it differs, or a comment. Unless noted, the call rests on the fitted dose curve; in most records, active means well fitted curve in the direction sought with a large enough effect; inconclusive means small, poorly fitted or top-dose-only effect, or another doubt; inactive means no such curve, though single readings can be large; an effect the other way counts as inactive or inconclusive. Potency means the concentration at half of the fitted maximal effect.

mol	MARV entry inh	Cruzain Triton	SARS PLP yeast	2A StopGo	LASV entry inh	RE007 growth inh	NS1 inh	Cruzain noTriton
CC1(C)CC(=O)CC(C)(C)N1OC(=O)c1ccncc1	-3%	0.7%	2%	8%	-14%[14.3 µM]	3%	5%	-1%
Cc1nn(CCCC(=O)NCc2ccccc2Br)c(=O)c2c1sc1ccccc12	?	-5.2%	nt	-25%	12%[46.1 µM]	nt	nt	-15%
COc1ccccc1CNC(=O)c1cccc(N(C)C)c1	?	-2.5%	-11%	48%[activator]	7%	?	-10%	5%
O=C(COC(=O)Cc1ccc(Cl)cc1)NCc1ccc2c(c1)OCO2	2%	nt	0%	-14%	9%	?	nt	nt
CCN(CC)CCn1c2ccccc2c(=O)c2c(O)ccc(O)c21	24%	nt	nt	-10%	?	0%	nt	nt
CCOC(=O)CCCCCN(Cc1ccccc1)S(=O)(=O)c1ccc([N+](=O)[O-])cc1	8%	-5.1%	-40%	0%	-27%	-12%	-6%	-3%
COc1cc(OC)c2c(-c3ccccc3)cc(=O)oc2c1C(CCN1CCOCC1)c1ccc2c(c1)OCO2 (stereo unspecified)	nt	2.8%	9%	69%[activator]	nt	2%	nt	0%
Cc1cc(C(c2nnnn2Cc2ccccc2)N2CCOCC2)c(C)n1-c1ccc2c(c1)OCO2 (stereo unspecified)	-31%	-4.8%	0%	nt	?	1%	-6%	20%
Cc1cc(/C=C2\C(=O)NC(=O)N(c3ccc(Cl)cc3)C2=O)c(C)n1-c1sc2c(c1C#N)CCCC2	1%	-12%	-13%	-10%	nt	4%	9%	-9%
Cc1ccc(C(=O)C[n+]2cc(Br)cc(Br)c2)cc1[N+](=O)[O-]	-13%	-0.9%	-6%	-17%	-1%	-18%	?	?
O=C(NCC1CCCO1)c1ccccc1-c1nc(-c2ccccc2)no1 (stereo unspecified)	?	-1.4%	-2%	4%	-7%	0%	-6%	7%
CC(C)(C)NC(=O)C(=O)N/N=C/c1ccc(F)cc1	?	nt	0%	54%[activator]	0%	6%	nt	nt
O=C(c1ccc(Cl)cc1)N1CCCC(c2ccccc2)=N1	-14%	-8.2%	-16%	nt	-8%	-22%	-59%	-3%
CCOC(=O)N1CCN(C(=O)CSc2nnc(COc3ccc(Cl)cc3)o2)CC1	0%	1.7%	6%	-21%	nt	15%	0%	?
Cn1ncc(C#N)c1/N=C/N1CCOCC1	1%	-7.1%	3%	2%	26%	2%	9%	5%
CCN(CC)CCN1C(=O)C(=O)/C(=C(/O)c2cnn(-c3ccccc3)c2C)C1c1ccc(C)o1 (stereo unspecified)	-23%	-1.2%	-7%	58%[activator]	?	1%	6%	-12%
N=c1oc2ccc3ccccc3c2cc1-c1nc(-c2ccccc2)cs1	-4%	-5.3%	9%	-5%	4%	1%	4%	25µM*
O=C(CNC(c1ccccc1)c1ccccc1)Nc1cc([N+](=O)[O-])ccc1Cl	?	-7.3%	-1%	?	?	31%	-30%	25µM*
CCOC(=O)c1ccccc1NC(=O)COc1ccccc1	4%	-2.7%	-3%	-7%	-11%	-16%	-49%	-7%
Cc1ccc(S(=O)(=O)c2nc(S(C)(=O)=O)sc2N2CCC(C)CC2)cc1	nt	nt	0%	18%	nt	1%	2%	nt
Cc1cccc(OCC(=O)N/N=C/C=C/c2ccco2)c1	-24%	-11%	-26%	-3%	7%	nt	14%	2%
COc1ccc(C(CNC(=O)c2ccc(S(=O)(=O)N3CCCC3)cc2)N(C)C)cc1OC (stereo unspecified)	2%[46.1 µM]	nt	0%	0%	7%	-21%	nt	nt
COc1ccc(OC(C)C(=O)NCc2nc(-c3cccc(C)c3)no2)cc1 (stereo unspecified)	0%[46.1 µM]	-8.1%	nt	0%	?	nt	nt	7%
COc1ccc2c(c1OC)C(=O)OC2n1c(O)c(N=NC(C)=O)c2ccccc21 (stereo unspecified)	-2%[46.1 µM]	nt	0%	1%	6%	7%	4%	nt
CC(CN1CCOCC1)OC(=O)/C=C/c1ccccc1 (stereo unspecified)	19%[46.1 µM]	nt	0%	29%	21%	-6%	1%	nt
COCCCN1C(=O)c2ccc(C(=O)OCC(=O)N(CCC#N)c3cc(C)cc(C)c3)cc2C1=O	-5%	nt	-25%	-6%	-2%	-3%	nt	nt
Cc1nc2c(nc1C)C(=O)c1ccccc1C2=O	14µM*	nt	nt	?	?	?	nt	nt
CC1(C)Cc2nc3oc4c(N(CCO)Cc5ccccc5)ncnc4c3cc2CO1	0%	-3.4%	-5%	32µM*	?	-14%	-13%	?
COc1ccc(OC)c(C(=O)Cn2c3[n+](c4ccc(C(F)(F)F)cc42)CCCCC3)c1	-2%[46.1 µM]	nt	-1%	-11%	2%	-28%	-2%	nt
COc1ccc(C(=O)Nc2cc(C)nn2-c2ccc(C)cc2)cc1	-11%[46.1 µM]	nt	-3%	10%	?	3%	-3%	nt

Whole records as entered above. Screens in order: MARV entry inh | Cruzain Triton | SARS PLP yeast | 2A StopGo | LASV entry inh | RE007 growth inh | NS1 inh | Cruzain noTriton
`CC(C)(C)NC(=O)C(=O)N/N=C/c1ccc(F)cc1` as listed: ? | nt | 0% | 54%[activator] | 0% | 6% | nt | nt
`COc1cc(OC)c2c(-c3ccccc3)cc(=O)oc2c1C(CCN1CCOCC1)c1ccc2c(c1)OCO2` (stereo unspecified) as listed: nt | 2.8% | 9% | 69%[activator] | nt | 2% | nt | 0%
`O=C(COC(=O)Cc1ccc(Cl)cc1)NCc1ccc2c(c1)OCO2` as listed: 2% | nt | 0% | -14% | 9% | ? | nt | nt

Other compounds
mol	MARV entry inh	Cruzain Triton	SARS PLP yeast	2A StopGo	LASV entry inh	RE007 growth inh	NS1 inh	Cruzain noTriton
O=C(CCCCCC(=O)N(CCO)CCO)N(CCO)CCO	-19%	1.4%	-1%	-19%	-12%	0%	-11%	-6%
CC1=NN(C(=O)Cc2ccc([N+](=O)[O-])cc2)C(O)(c2ccccc2)C1 (stereo unspecified)	22%	-2.3%	-3%	nt	9%	2%	5%	2%
COc1ccc(CNC(=O)CCc2c(C)nc3nc(CNC(=O)OC(C)(C)C)nn3c2C)cc1	2%[46.1 µM]	-0.1%	nt	2%	12%[46.1 µM]	nt	nt	8%
O=C1c2ccccc2-c2cccc(C(=O)N3CCN(C(=O)c4ccccc4)CC3)c21	nt	nt	-1%	-2%	nt	11%	2%	nt
COC(=O)c1sc2ncccc2c1OCc1ccc(Cl)cc1Cl	6%	4.4%	3%	120%[activator]	10%	-5%	-3%	-6%
CC(C)CN(C(=O)COC(=O)c1c(Cl)ccc(Cl)c1Cl)C1CCS(=O)(=O)C1 (stereo unspecified)	-28%[46.1 µM]	nt	1%	-13%	-6%	-25%	nt	nt
O=c1c[n+]([O-])c2ccccc2n1OCc1ccccn1	12%	3.2%	-1%	10%	?	7%	7%	-8%
COc1cc(C(C)=O)ccc1OCC(O)CN1CCN(c2ccccn2)CC1 (stereo unspecified)	-4%[46.1 µM]	nt	-5%	8%	?	1%	17%	nt
CCOC(=O)c1ccc(CN(Cc2ccccc2C)S(=O)(=O)c2ccc(F)c(C)c2)cc1	nt	0.9%	nt	-8%	-20%[46.1 µM]	nt	nt	?
O=C(CCC(=O)c1cccs1)NCc1ccccc1Cl	8%	nt	9%	64%[activator]	5%	-3%	nt	nt
COc1ccc(NC(=O)c2ccc3c(c2)C(=O)N(Cc2cccnc2)C3=O)cc1	-1%	2.2%	-2%	15%	5%	-11%	-6%	?
O=S1(=O)N=C(c2ccccc2)c2ccccc21	14%[46.1 µM]	nt	nt	6%	0%[46.1 µM]	-9%	nt	nt
O=c1c2ccccc2nc(/C=C/c2ccc(O)c(O)c2)n1-c1ccccc1	nt	nt	-6%	?	nt	-1%	13%	nt
O=[N+]([O-])c1ccc2n[nH]nc2c1	4%[46.1 µM]	1.7%	-6%	-5%	0%	-12%	-4%	0%
OCC1(CCc2ccccc2)CCN(Cc2ccccc2Cl)CC1	1%[46.1 µM]	nt	0%	-9%	-3%	-16%	3%	nt
CCCCC1(c2ccc(F)cc2)NC(=O)N(CC(=O)N2CCN(C(=O)c3ccco3)CC2)C1=O (stereo unspecified)	-1%	nt	-3%	-8%	2%	2%	-4%	nt
O=C(CN1CCN(C(=O)c2ccco2)CC1)N1CCc2[nH]c3ccccc3c2C1	14%[46.1 µM]	nt	0%	-16%	16%[46.1 µM]	-12%	2%	nt
CSc1ccc(CN(C)CC(=O)Nc2ccc(NC(C)=O)cc2)cc1	5%[46.1 µM]	nt	1%	9%	-20%	1%	nt	nt
O=[N+]([O-])c1cccc(/C=C/c2nc[nH]c2[N+](=O)[O-])c1	nt	nt	-1%	29%	nt	-14%	1%	nt
CSCCC(NC(=O)c1ccccc1Cl)C(=O)N1CCN(C(C)=O)CC1 (stereo unspecified)	21%	nt	1%	-14%	1%	9%	nt	nt

Looked up one by one from the entries so far (two):
mol	MARV entry inh	Cruzain Triton	SARS PLP yeast	2A StopGo	LASV entry inh	RE007 growth inh	NS1 inh	Cruzain noTriton
O=c1c2ccccc2nc(/C=C/c2ccc(O)c(O)c2)n1-c1ccccc1	nt	nt	-6%	?	nt	-1%	13%	nt
CSc1ccc(CN(C)CC(=O)Nc2ccc(NC(C)=O)cc2)cc1	5%[46.1 µM]	nt	1%	9%	-20%	1%	nt	nt
